# Assay outcomes: PubChem BioAssay, Broad Institute
# T cruzi repl = inhibitors of intracellular T. cruzi growth, primary screen, luminescence, NIH3T3 host cells; inhibition, % (concentration not given with the values); AID 1885, 2009; T. cruzi beta-gal in NIH3T3, 90 h; actives 1.4% (n = 300,000);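 active = mean inhibition across valid replicates above about 55%, limit read from the data; inconclusive = mean below that limit but half or more replicates reach it; inactive = mean below it, under half of replicates reach it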;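 note: signal also drops with host cell toxicity which is not excluded here; 0% = plate median of DMSO wells and 100% = zero luminescence signal; higher percent means less beta-gal luminescence so fewer parasites; stock transfer was 50 nL into about 50 µL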
# Beta apoptosis = inhibitors of cytokine-induced beta cell apoptosis, primary screen, luminescence; INS-1E cytokine-induced death, ATP luminescence, 48 h; percent of positive-control rescue, neutral wells zero; protection from apoptosis, % (no concentration beside the values); actives 0.8% (n = 300,000);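 active = all replicates at 75% or more, or half of them and the mean; inconclusive = half reach 75% but not the mean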;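 note: 0% = cytokine-treated negative control wells and 100% = positive control rescue; higher means more ATP so stronger rescue from cytokine killing; wells of about 40 µL received 100 nL stock; the first replicate is given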
# Calb FLC = C. albicans growth inhibition with fluconazole, primary screen, CaCi-2 strain, Alamar Blue fluorescence. AID 1979, 2009. growth inhibition, % (concentration not given with the values). C. albicans CaCi-2 (fluconazole-resistant clinical isolate) + fluconazole, 48 h. actives 0.57% (n = 300,000);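 active = most replicates above 75%; inconclusive = exactly half above 75%; inactive = most below 75%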;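 note: all wells also contain fluconazole at 8 µg/ml as a sub-toxic cotreatment; 0% = median of DMSO wells and 100% = median of geldanamycin control wells; wells of about 8 µL received 7.5 nL stock; the first replicate is given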
# rRNA inh HTS = reduced GFP signal of wild-type E. coli, primary screen, bacterial rRNA inhibitor project, GFP/RFP fluorescence, OD600, single point | GFP signal change (wild-type ribosome), % (test concentration not listed) | AID 720706, 2013 | E. coli WT GFP vs humanized-ribosome RFP mutants, 24 h; hits give low values; DMSO median 0, no signal -100 | actives 1.6% (n = 350,000);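 active = significant combined selectivity score with lowered wild-type GFP, culture density cut under 30%, mutant RFP and density less affected; inactive = any of these conditions unmet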; note: one replicate is shown; some compounds called inactive have numbers as strong as hits
# FGF22 binding = binders of human FGF22 protein, primary screen, FGF22 synaptogenesis inhibitor project, biophysical, thermal shift, single point | Fibroblast growth factor 22 (Homo sapiens), Q9HCT0 | calls only at 9.99 µM | recombinant FGF22 thermal shift, SYPRO orange fluorescence; percent of sucrose octasulfate shift, DMSO zero | actives 1.5% (n = 340,000);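 active = melting point raised past a set limit in the mean and every replicate; inconclusive = no clear call; three in four hits are not shown here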
# Target sequence (Q9HCT0 whole entry, looked up): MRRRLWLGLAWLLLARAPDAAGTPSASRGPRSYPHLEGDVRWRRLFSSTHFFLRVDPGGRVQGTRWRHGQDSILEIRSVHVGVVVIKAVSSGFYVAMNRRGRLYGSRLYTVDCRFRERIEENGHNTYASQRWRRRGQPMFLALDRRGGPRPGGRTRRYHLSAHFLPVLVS
# ALR inh = inhibitors of human ALR sulfhydryl oxidase, primary screen, biochemical, H2O2 detection, HRP-luminol luminescence, single point; FAD-linked sulfhydryl oxidase ALR (Homo sapiens), P55789; purified ALR, DTT oxidation; inhibition, % (concentration not given with the values); actives 3.8% (n = 290,000); AID 485317, 2010;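 active = mean and each replicate at 75% or more; inconclusive = only one of the two met; inactive = neither met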;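 note: stock transfer was 7.5 nL into about 7.5 µL; 0% = neutral wells and 100% = wells with inactivated enzyme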
# Target sequence (P55789 whole entry, looked up): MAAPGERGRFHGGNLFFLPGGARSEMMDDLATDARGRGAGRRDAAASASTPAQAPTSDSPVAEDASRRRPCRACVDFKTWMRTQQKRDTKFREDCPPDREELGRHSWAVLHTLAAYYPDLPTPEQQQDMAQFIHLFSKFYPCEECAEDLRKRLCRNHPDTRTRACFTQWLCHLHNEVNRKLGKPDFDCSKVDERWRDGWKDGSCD
# MLL AF4-AF9 inh = inhibitors of AF4 peptide binding to AF9, primary screen, biochemical, AlphaScreen, biotin-AF4 peptide, FLAG-AF9, single point; actives 0.47% (n = 350,000); Protein AF-9 (Homo sapiens), P42568; inhibition, % at 10 µM;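 active = every replicate reaching a set inhibition limit, whatever the replicate mean, cut at about 25% in these data; inconclusive = mean inhibition reaches that limit but some replicates miss it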;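 note: 0% = plate neutral control median and 100% = total signal loss; the record names both 10 and 1 µM as test concentration; the first replicate is given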
# Target sequence (P42568 whole entry, looked up): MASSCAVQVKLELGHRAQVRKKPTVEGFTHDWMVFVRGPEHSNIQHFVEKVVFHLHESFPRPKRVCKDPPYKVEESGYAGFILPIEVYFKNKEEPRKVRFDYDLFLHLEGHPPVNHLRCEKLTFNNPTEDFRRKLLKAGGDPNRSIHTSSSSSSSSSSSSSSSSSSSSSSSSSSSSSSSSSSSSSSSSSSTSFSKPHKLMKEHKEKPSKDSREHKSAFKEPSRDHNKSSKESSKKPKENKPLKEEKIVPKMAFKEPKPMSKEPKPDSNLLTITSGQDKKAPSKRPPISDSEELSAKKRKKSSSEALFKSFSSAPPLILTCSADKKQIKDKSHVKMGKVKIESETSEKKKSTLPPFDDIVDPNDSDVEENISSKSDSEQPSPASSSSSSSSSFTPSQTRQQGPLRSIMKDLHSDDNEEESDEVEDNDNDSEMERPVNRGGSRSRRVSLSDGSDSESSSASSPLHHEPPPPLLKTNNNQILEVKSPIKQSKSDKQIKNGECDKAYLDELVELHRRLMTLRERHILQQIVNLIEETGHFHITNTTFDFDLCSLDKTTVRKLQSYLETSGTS
# RanGTP-Impb inh = inhibitors of RanGTP-importin-beta interaction, primary screen, biochemical, FRET, CFP-Ran, YFP-importin-beta, homogeneous | cell-free CFP-Ran/YFP-importin-beta FRET ratio | actives 1.1% (n = 300,000) | Ran GTPase (GTP-bound) - importin-beta complex | AID 2216, 2009 | inhibition, % (concentration not given with the values);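 active = most replicates above 15%; inconclusive = exactly half above 15%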;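 note: 0% = DMSO wells and 100% = Ran loaded with GDP instead of GTP; wells of about 40 µL received 100 nL stock; the first replicate is given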
# rRNA inh HTS OD600 = second read-out of rRNA inh HTS, no call of its own (marks repeat the call); OD600 change, %; measured here: OD600 growth;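 optical density of the mix in the first replicate; 0 = DMSO median and -100 = no signal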
# rRNA inh HTS RFP = further read-out of rRNA inh HTS, marked with its call; RFP signal change, %; measured here: RFP humanized mutant strains;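 first replicate; 0 = DMSO median and -100 = no signal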
# * hit, by the source's call; i = inactive; u = inconclusive; x = not tested or not shown. Only part of the results is shown (hit frequency here may not be typical).
SMILES,T cruzi repl,Beta apoptosis,Calb FLC,rRNA inh HTS,rRNA inh HTS OD600,rRNA inh HTS RFP,FGF22 binding,ALR inh,MLL AF4-AF9 inh,RanGTP-Impb inh
CCOc1ccc(CCNC(=O)C2CC(=O)N(c3ccc4c(c3)OCCO4)C2)cc1OCC (centres undefined),0.3,1.1,-8.5,4.3,-1.1,0.3,i,-2.6,-11.5,-3.0
COc1cccc(C(=O)NC(=O)Nc2nc(C)cc(C(F)(F)F)n2)c1,-3.4,x,7.0,-1.6,3.5,0.5,i,17.9,-10.1,1.3
COc1ccc(CNCCNC(=O)c2cccs2)c(OC)c1OC,-12.1,-4.6,-7.6,19.7,16.0,11.2,i,-0.1,-0.4,6.6
O=C(Nc1cccc(-n2cnnn2)c1)c1cccs1,2.9,8.4,8.2,0.3,3.3,3.3,i,-8.7,0.2,1.0
O=C(CCc1ccccc1)Nc1nc2n(n1)C(c1ccc(Cl)cc1)CC(=O)N2 (centres undefined),-5.6,-2.1,1.6,x,x,x,x,6.2,x,-1.4
CN(c1ccccc1)S(=O)(=O)c1cc(Cl)ccc1Cl,7.8,-7.1,7.4,-46.2,-59.2,-9.0,i,-2.2,-0.9,-1.3
CCOC(=O)c1c(-c2ccccc2)csc1NC(=O)CSc1nc(N)cc(N)n1,-24.3,-1.1,6.7,x,x,x,x,-4.6,x,1.3
CCN1C(=O)[C@@H]2[C@@H](c3ccc(-c4cccc(Cl)c4)cc3)N3CCC[C@@]3(C(=O)OC)[C@@H]2C1=O,4.1,-0.1,8.8,-3.4,-7.0,-1.1,i,-0.2,4.8,0.7
Cc1nc(-c2ccccc2)nc2sc(C(=O)c3ccc(F)cc3)c(N)c12,0.7,-9.7,-4.4,x,x,x,i,5.6,-0.2,2.6
CCN(CC)CCNC(=S)Nc1ccc(F)cc1,-5.1,-4.9,-4.4,2.2,5.7,1.9,i,-4.7,-0.2,4.4
CCOC(=O)Cc1csc(NC(=O)C(C)Oc2ccc3c(C)cc(=O)oc3c2)n1 (centres undefined),-1.8,4.7,51.1,x,x,x,i,x,2.0,0.4
CCN(CC)S(=O)(=O)c1ccc(NC(=O)Cc2cccs2)cc1,0.4,-1.2,1.2,-14.4,-29.0,-0.7,i,-5.3,-5.8,1.4
O=C(COC(=O)c1ccc(Cl)nc1)Nc1cccnc1Cl,2.7,-1.3,x,12.0,14.0,-0.8,i,-4.0,-0.6,0.1
CNc1snc(C)c1C(=O)OCC(=O)c1ccc(OC)c(F)c1,x,26.2,x,x,x,x,i,-1.1,-3.9,x
CC(C)NC(=S)N1CCN(C(c2ccccc2)c2ccccc2)CC1,15.7,6.1,11.5,-1.9,-4.3,-0.4,i,-6.5,2.8,2.9
COc1ccc(/C=C(\NC(=O)c2cccs2)C(=O)Nc2ccccc2C)cc1OC,-4.9,-6.2,-2.3,x,x,x,x,-2.1,x,5.5
N#Cc1nc(-c2ccccc2Cl)oc1N1CCOCC1,4.3,-2.4,-3.7,x,x,x,x,-1.2,x,1.6
Cc1ccc(NC(=S)Nc2nc(CC(=O)Nc3ccccc3)cs2)cc1,-26.1,11.8,20.3,x,x,x,x,-5.1,x,-3.2
CC1CC2=C(NC(=S)NC2c2ccccc2F)/C(=C/c2ccccc2F)C1 (centres undefined),-4.6,-0.6,-5.8,-7.2,-5.7,4.4,i,-4.3,2.0,1.8
COc1ccc(/C=N/c2nc3ccccc3n2C)cc1OC,-5.6,-4.3,2.2,x,x,x,x,3.1,x,-0.5
N/C(=N\c1nc2c(c(=O)[nH]1)CCCC2)Nc1ccccc1Sc1ccccc1,19.2,12.6,-6.3,x,x,x,x,-0.9,x,0.8
O=C1CCC(C(=O)Nc2cccc(S(=O)(=O)Nc3ccccc3F)c2)=NN1,x,-5.8,x,9.5,-12.4,5.3,i,-6.2,-2.4,x
CCOc1ccc(OCC(=O)Nc2c3c(nn2C(C)(C)C)CS(=O)(=O)C3)cc1,-6.8,-5.3,4.9,1.9,2.0,3.5,i,-12.9,-0.1,1.5
O=C(NC1CCCCC1)c1ccc(N2CCOCC2)c([N+](=O)[O-])c1,-8.2,x,-4.1,-7.6,-7.8,0.6,i,9.5,-0.2,-1.4
CN(C)CCNC(=O)c1sc2cccc(F)c2c1Cl,-3.8,-5.4,7.4,0.5,6.5,1.0,i,-6.6,-4.8,5.2
# More structures.
SMILES,T cruzi repl,Beta apoptosis,Calb FLC,rRNA inh HTS,rRNA inh HTS OD600,rRNA inh HTS RFP,FGF22 binding,ALR inh,MLL AF4-AF9 inh,RanGTP-Impb inh
CSc1nc(O)c(C(c2ccc(O)cc2)c2c(O)nc(SC)[nH]c2=O)c(=O)[nH]1,-20.6,2.7,-1.6,12.9,11.2,1.7,i,84.3*,-4.3,-2.7
Cc1ccc(C)c2c(SC(C)C(=O)NCc3ccco3)nc(-c3ccccc3)nc12 (centres undefined),-6.4,-3.7,-3.9,x,x,x,x,-3.3,x,-3.4
COC(=O)C1CCCN1C(C(=O)NC1CCCCC1)c1ccc(Cl)cc1 (centres undefined),3.9,-2.3,2.7,5.2,1.1,-0.2,i,31.4,-0.4,-1.6
O=C(O)c1sccc1Oc1ccc(NS(=O)(=O)c2cccc(F)c2)cc1,3.8,0.4,8.5,4.8,5.4,1.0,i,-2.0,-3.3,3.7
O=C(N/N=C/c1ccco1)c1cnccn1,-10.3,1.3,-5.1,14.6,14.4,-0.1,i,-2.0,3.3,-2.3
CC1CCN(c2ccc3nnc(CCC(=O)NCCCOC(C)C)n3n2)CC1,-0.1,-9.6,4.1,1.9,13.4,-0.7,i,-5.1,-3.0,0.6
Cc1ccc(C)c(NC(=O)CCC(=O)N/N=C2/CC(=O)CC(C)(C)C2)c1,-1.0,-3.2,2.4,12.4,-0.9,4.0,i,7.7,-5.2,4.1
COC(=O)c1cc(S(=O)(=O)NCCc2ccc(SC)cc2)c[nH]1,-5.4,-4.3,0.0,-11.0,-6.9,6.8,i,-11.7,-0.7,-0.3
N/C(=N\c1nc2c(c(=O)[nH]1)CCC2)Nc1ccccc1,3.8,0.6,-1.2,4.8,0.1,-1.3,i,-3.8,-1.5,2.1
NS(=O)(=O)c1cccnc1Nc1ccc(Cl)c(Cl)c1,13.0,0.0,27.6,x,x,x,x,x,x,3.6
Cc1cc(=O)oc2cc(OCC(=O)N3CCCC(C)C3)ccc12 (centres undefined),-7.7,3.4,2.6,x,x,x,x,-8.2,x,-1.2
CC(=O)c1cccc(NC(=O)N2CCC(C(=O)c3ccc(F)cc3)CC2)c1,-5.9,3.4,-6.8,-3.4,4.1,3.8,i,2.1,-0.6,1.4
COc1ccc(C(=O)CCS(=O)(=O)c2ccc(C)cc2)cc1OC,36.2,-16.3,2.6,1.4,-7.3,-2.0,i,32.5,-0.7,-0.4
C[N+]1(CC(=O)OCCCc2ccccc2)CCOCC1,x,-3.6,-3.5,x,x,x,x,-0.7,x,-0.7
COc1ccc(-c2nnnn2-c2ccccc2OC)cc1,-6.8,-1.2,19.8,x,x,x,x,-0.6,x,0.6
CCc1ccc(NC(=O)c2ccc(Cn3cc([N+](=O)[O-])cn3)cc2)cc1,16.9,9.1,19.7,-0.1,12.2,-1.0,i,-1.9,-4.7,-0.8
Cc1ccc(N=Cc2c(O)n(-c3nccs3)c(=O)c3ccccc23)cc1,3.1,4.3,14.7,3.7,1.8,1.2,i,-4.5,14.6,2.0
O=C(O)c1cccc(NC(=O)c2cccc(S(=O)(=O)N3CCc4ccccc43)c2)c1,-18.6,4.1,20.4,-11.0,-8.0,1.9,i,x,3.9,6.5
CCN1CCN(C(=O)CCc2nnc3ccc(N4CCC5(CC4)OCCO5)nn23)CC1,-10.1,3.5,-2.3,5.2,7.8,1.9,i,-0.1,0.7,2.1
O=C(COc1ccc(-c2nnco2)cc1)NC1CCS(=O)(=O)C1 (centres undefined),x,3.8,x,4.5,18.4,-3.9,i,-11.1,-0.6,x
Cc1cccc2cc(C#N)c(NCCNS(=O)(=O)c3ccc4c(c3)OCCO4)nc12,6.3,-2.3,15.7,x,x,x,x,-9.6,x,u
C/C(=N\NC(=O)c1nnn(-c2nonc2N)c1CN1CCc2ccccc21)c1ccccc1O,46.1,92.2*,-26.7,5.4,7.0,4.4,i,-1.8,-1.5,u
Cc1cnc(C(=O)OCC(=O)Nc2ccc(Cl)cc2)cn1,-2.8,x,-6.0,5.1,1.7,2.3,i,2.8,4.3,1.1

# Compounds from the list above that contain a COOH group (2):
SMILES,T cruzi repl,Beta apoptosis,Calb FLC,rRNA inh HTS,rRNA inh HTS OD600,rRNA inh HTS RFP,FGF22 binding,ALR inh,MLL AF4-AF9 inh,RanGTP-Impb inh
O=C(O)c1sccc1Oc1ccc(NS(=O)(=O)c2cccc(F)c2)cc1,3.8,0.4,8.5,4.8,5.4,1.0,i,-2.0,-3.3,3.7
O=C(O)c1cccc(NC(=O)c2cccc(S(=O)(=O)N3CCc4ccccc43)c2)c1,-18.6,4.1,20.4,-11.0,-8.0,1.9,i,x,3.9,6.5

# In the list so far, these contain a thiophene ring, fused or not:
SMILES,T cruzi repl,Beta apoptosis,Calb FLC,rRNA inh HTS,rRNA inh HTS OD600,rRNA inh HTS RFP,FGF22 binding,ALR inh,MLL AF4-AF9 inh,RanGTP-Impb inh
COc1ccc(CNCCNC(=O)c2cccs2)c(OC)c1OC,-12.1,-4.6,-7.6,19.7,16.0,11.2,i,-0.1,-0.4,6.6
O=C(Nc1cccc(-n2cnnn2)c1)c1cccs1,2.9,8.4,8.2,0.3,3.3,3.3,i,-8.7,0.2,1.0
CCOC(=O)c1c(-c2ccccc2)csc1NC(=O)CSc1nc(N)cc(N)n1,-24.3,-1.1,6.7,x,x,x,x,-4.6,x,1.3
Cc1nc(-c2ccccc2)nc2sc(C(=O)c3ccc(F)cc3)c(N)c12,0.7,-9.7,-4.4,x,x,x,i,5.6,-0.2,2.6
CCN(CC)S(=O)(=O)c1ccc(NC(=O)Cc2cccs2)cc1,0.4,-1.2,1.2,-14.4,-29.0,-0.7,i,-5.3,-5.8,1.4
COc1ccc(/C=C(\NC(=O)c2cccs2)C(=O)Nc2ccccc2C)cc1OC,-4.9,-6.2,-2.3,x,x,x,x,-2.1,x,5.5
CN(C)CCNC(=O)c1sc2cccc(F)c2c1Cl,-3.8,-5.4,7.4,0.5,6.5,1.0,i,-6.6,-4.8,5.2
O=C(O)c1sccc1Oc1ccc(NS(=O)(=O)c2cccc(F)c2)cc1,3.8,0.4,8.5,4.8,5.4,1.0,i,-2.0,-3.3,3.7
